Vaccinia inh: Vaccinia orthopox stage-specific inhibition; Vaccinia-infected cells, mCherry/Venus stage reporter fluorescence; hits give low values; some inactives read as strong as hits; activity change (mCherry), % (no concentration beside the values); 0.01% of 89,000 active;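 active means mCherry past -33% and 40 or more points under the early reporter, replicates agreeing; inconclusive means past -33% without that gap or agreement; tested in A549 cells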;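 further: scaled between vehicle wells and reference inhibitor wells; 23 nL library stock went into each well; one replicate is shown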
Vaccinia inh Venus: recorded beside Vaccinia inh, whose call it bears; activity change (Venus), %; measured here: Venus reporter, other viral stage;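 negative = less Venus signal; first of two replicates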
Numbers without * were called inactive; ? = inconclusive; nt = no result given; & = joins results of further samples. Only part of the results is shown; rates above refer to the full screens.

SMILES	Vaccinia inh	Vaccinia inh Venus
Cc1ccc(CN2CC(=O)N3[C@@H](CO)[C@H](c4ccc(-c5cccnc5)cc4)[C@@H]3C2)cc1	-9	-8
O=C(Nc1ccccc1F)N1C[C@H]2[C@@H](c3ccccc31)[C@@H](CO)N2C(=O)Nc1ccccc1	-7	-6
O=C(C1CC1)N1CC2(C1)[C@@H](c1ccccc1)[C@@H](CO)N2Cc1ccccc1F	-2	-8
C[C@H]1CN([C@@H](C)CO)S(=O)(=O)c2ccc(C3=CCCC3)cc2O[C@@H]1CN(C)C(=O)C1CCOCC1	7	2
C[C@H]1CN([C@@H](C)CO)C(=O)c2cc(NS(=O)(=O)c3ccc(Cl)cc3)ccc2O[C@H]1CN(C)Cc1ccc(C(=O)Nc2ccccc2N)cc1	10	1
CC(=O)N(C)C[C@@H]1Oc2cc(-c3ccc(F)cc3)ccc2S(=O)(=O)N([C@@H](C)CO)C[C@H]1C	-18	-16
COc1ccccc1-c1cnc2c(c1)C(=O)N([C@H](C)CO)C[C@H](C)[C@H](CN(C)C(=O)CC1CC1)O2	11	8
COCC(=O)Nc1ccc2c(c1)[C@@H]1C[C@H](CC(=O)NCc3ccc4c(c3)OCO4)O[C@@H](CO)[C@@H]1O2	2	0
C[C@H](CO)N1C[C@H](C)[C@@H](CN(C)S(=O)(=O)c2ccc(-c3ccccc3)cc2)OCc2cn(nn2)CCCC1=O	-15&-16	-13&-9
COC(=O)C[C@H]1CC[C@H]2[C@@H](COc3ccc(NC(=O)c4cncs4)cc3C(=O)N2C)O1	-1	2
C[C@@H](NC(=O)[C@@H]1N[C@@H]2c3ccc(C4=CCCC4)c(=O)n3C[C@@H]2[C@H]1CO)c1ccccc1	6	15
COc1ccc(S(=O)(=O)N(C)C[C@@H]2Oc3ccc(NC(=O)c4ccncc4)cc3C(=O)N([C@@H](C)CO)C[C@H]2C)cc1	8	11
CNC[C@@H]1Oc2c(NS(=O)(=O)c3cccs3)cccc2C(=O)N([C@@H](C)CO)C[C@H]1C	-3	-6
C[C@@H]1CN([C@H](C)CO)S(=O)(=O)c2ccc(Br)cc2O[C@@H]1CN(C)S(C)(=O)=O	3	-6
C[C@@H]1CN([C@H](C)CO)S(=O)(=O)c2ccc(C#CCN(C)C)cc2O[C@@H]1CN(C)C(=O)C1CCC1	-7	-5
CC(C)NC(=O)N(C)C[C@H]1Oc2ncc(C#CCC3CCCC3)cc2C(=O)N([C@H](C)CO)C[C@@H]1C	-7	-15
CO[C@@H]1CN(C)C(=O)c2cc(NC(=O)CC(F)(F)F)ccc2OC[C@H](C)N(C(=O)C2CC2)C[C@H]1C	16	19
C[C@H]1CN([C@@H](C)CO)C(=O)c2cccc(NC(=O)C3CCCCC3)c2O[C@@H]1CN(C)C(=O)Nc1ccccc1	-7	-2
COC(=O)[C@H]1[C@H](CO)[C@H]2Cn3c(cccc3=O)[C@@H]1N2CCc1ccccc1	4	23
Cc1ccccc1-c1ccc([C@H]2[C@H](CO)N3C(=O)CN(C(=O)c4ccncc4)C[C@@H]23)cc1	2	5
Cc1ccccc1S(=O)(=O)N1C[C@@H](O)COC[C@H]2O[C@H](CC(=O)NCc3ccccc3Cl)CC[C@@H]21	-6	12
C[C@@H]1CN([C@@H](C)CO)C(=O)c2cc(-c3ccncc3)cnc2O[C@@H]1CN(C)C(=O)c1ccccc1F	14	8
C[C@@H]1CN([C@@H](C)CO)C(=O)c2cccc(NC(=O)c3nc4ccccc4s3)c2O[C@@H]1CN(C)S(=O)(=O)c1ccccc1	-33	-20
CC(C)NC(=O)N(C)C[C@H]1OCCCC[C@@H](C)Oc2ccc(NS(=O)(=O)c3ccc(Cl)cc3)cc2C(=O)N([C@H](C)CO)C[C@@H]1C	14	6
O=C(c1ccccn1)N1C[C@H]2[C@@H](c3ccccc31)[C@@H](CO)N2C(=O)C1CC1	6	9
COc1cc(CN2CC3(CN(C(=O)NC(C)C)C3)c3c(n(C)c4cc(OC)ccc34)[C@@H]2CO)cc(OC)c1	9	4
O=C1O[C@@H](c2ccccc2)[C@@H](c2ccccc2)N2[C@@H](c3ccccc3OCCO)[C@]3(C(=O)Nc4ccc(C#CC5(O)CCCCCC5)cc43)[C@@H](C(=O)N3CCCCCCC3)[C@H]12	-15	1
O=C(CN1CCOCC1)NCC[C@H]1CC[C@@H](NC(=O)Nc2ccc(Cl)cc2)[C@H](CO)O1	11	7
COCCCNC(=O)[C@@]1(CCS(=O)(=O)c2ccccc2)N=C(c2ccc(OCCCO)cc2)O[C@H]1c1ccccc1	4	-2
C[C@@H]1CN([C@H](C)CO)C(=O)c2cccc(NS(C)(=O)=O)c2O[C@H]1CN(C)S(=O)(=O)c1ccccc1	11	7
C[C@@H]1CN([C@@H](C)CO)C(=O)c2cc(-c3ccc(F)cc3)cnc2O[C@H]1CN(C)C(=O)C1CCC1	14	1
C[C@@H]1CN([C@@H](C)CO)C(=O)c2c(c3ccccc3n2C)-c2ccccc2CO[C@@H]1CN(C)S(=O)(=O)c1cccs1	-30	-28
CCCC(=O)Nc1ccc2c(c1)OC[C@@H](C)N(Cc1ccccn1)C[C@H](C)[C@H](OC)CN(C)C2=O	12	8
C[C@H](CO)N1C[C@H](C)[C@H](CN(C)C)OCCCC[C@H](C)Oc2ccc(NC(=O)Nc3ccc(C(F)(F)F)cc3)cc2C1=O	?	nt
C[C@@H]1CN([C@@H](C)CO)C(=O)Cc2cc(NS(=O)(=O)c3cccs3)ccc2O[C@H]1CN(C)Cc1ccccc1	?	nt
Cc1noc(C)c1NC(=O)N(C)C[C@@H]1Oc2cc(C#CCN(C)C)ccc2S(=O)(=O)N([C@H](C)CO)C[C@H]1C	2	0
Cc1ccc(-c2ccc([C@@H]3[C@H](CO)N4C(=O)CN(C(=O)NC(C)C)C[C@@H]34)cc2)cc1	1	5
C[C@@H]1CN([C@H](C)CO)C(=O)c2cccc(NC(=O)CCCCCC(=O)Nc3ccccc3N)c2O[C@H]1CN(C)Cc1ccc(C(F)(F)F)cc1	-26	-6
O=C(NC1CCC1)[C@H]1[C@H](CO)[C@H]2Cn3c(ccc(-c4ccncc4)c3=O)[C@@H]1N2CC1CC1	13	16
COc1cccc(-c2ccc([C@@H]3[C@@H](CO)N4CCCCN(CC5CC5)C[C@H]34)cc2)c1	-26	-7
CCS(=O)(=O)Nc1ccc2c(c1)C(=O)N(C)[C@@H]1CC[C@H](CC(=O)Nc3ccccc3)O[C@@H]1CO2	-5	-6
CC(=O)N1[C@@H](CO)[C@@H](c2ccc(C3=CCCC3)cc2)C12CN(C(=O)NC(C)C)C2	7	12
C[C@H](CO)N1C[C@H](C)[C@H](CN(C)C(=O)Nc2ccccc2)OCc2ccccc2-c2c(n(C)c3ccccc23)C1=O	?	nt
COCC(=O)N1[C@H](CO)[C@H](c2ccccc2C2=CCCC2)[C@@H]1C#N	-9	-4
OC[C@H]1[C@H](c2ccc(C#Cc3ccccc3F)cc2)[C@@H]2CN(Cc3cncnc3)CCCCN12	-31	-41
Cc1ccc(S(=O)(=O)N(C)C[C@H]2OCCCC[C@H](C)Oc3ccc(NS(=O)(=O)c4ccccc4)cc3C(=O)N([C@H](C)CO)C[C@H]2C)cc1	-18	-11
C[C@@H]1CN([C@@H](C)CO)C(=O)c2cc(C#CCc3ccccc3)cnc2O[C@H]1CN(C)C(=O)C1CCCCC1	-27	-22
O=C(C[C@H]1C[C@H]2c3cc(NC(=O)c4cccnc4)ccc3O[C@H]2[C@H](CO)O1)NCc1cccc(F)c1	23	16
COC(=O)C[C@@H]1CC[C@H]2[C@H](COc3ccc(NS(=O)(=O)c4ccc(C)cc4)cc3C(=O)N2C)O1	-12	-12
CCNC(=O)C[C@@H]1CC[C@@H]2[C@H](COc3ccc(NC(=O)Cc4cccs4)cc3C(=O)N2C)O1	15	9
C/C=C/c1ccc2c(c1)O[C@H](CN(C)C(=O)c1ccc3c(c1)OCO3)[C@H](C)CN([C@@H](C)CO)S2(=O)=O	-3	-4
CC=Cc1ccc2n(c1=O)C[C@H]1[C@H](CO)[C@@H](C(=O)NCCc3cn(C)cn3)[C@@H]2N1C(=O)CC (mixture of isomers)	3	8
CN(C)CC(=O)Nc1ccc2c(c1)[C@H]1C[C@@H](CC(=O)NC3CCCCC3)O[C@@H](CO)[C@H]1O2	-2	-6
C[C@@H]1CN([C@H](C)CO)C(=O)Cc2cc(NC(=O)Nc3ccc4c(c3)OCO4)ccc2O[C@H]1CN(C)Cc1ccncc1	9	-2
C[C@H](CO)N1C[C@H](C)[C@H](CN(C)C(=O)NC2CCCCC2)Oc2ncc(Br)cc2C1=O	3	1
COc1ccc(C#Cc2ccc([C@@H]3[C@H](CO)N4CCCCN(S(=O)(=O)c5ccccc5)C[C@@H]34)cc2)cc1	?	nt
C[C@@H]1CCCCO[C@H](CN(C)C(=O)NC2CCCCC2)[C@H](C)CN([C@H](C)CO)C(=O)c2cc(NS(=O)(=O)c3ccc(Cl)cc3)ccc2O1	?	nt
COc1ccc(NC(=O)Nc2ccc3c(c2)C(=O)N([C@@H](C)CO)C[C@H](C)[C@@H](CN(C)CC2CCCCC2)OCCCC[C@H](C)O3)cc1	?	nt
COc1ccccc1NC(=O)N(C)C[C@H]1OCc2cnnn2CCCC(=O)N([C@@H](C)CO)C[C@H]1C	-2	4
C[C@H](CO)N1C[C@H](C)[C@@H](CN(C)C(=O)c2ccccn2)Oc2cc(C#CCC3CCCC3)ccc2S1(=O)=O	?	nt
The listing continues:
SMILES	Vaccinia inh	Vaccinia inh Venus
COc1ccc(NC(=O)N2CC(=O)N3[C@H](C2)[C@H](c2ccc(C#CCC4CCCC4)cc2)[C@@H]3CO)cc1	?	nt
CC(C)NC(=O)N(C)C[C@@H]1Oc2cc(C#CCN(C)C)ccc2S(=O)(=O)N([C@H](C)CO)C[C@@H]1C	5	1
CO[C@@H]1CN(C)C(=O)c2ccc(NC(=O)Nc3ccccc3F)cc2OC[C@@H](C)N(CCC(F)(F)F)C[C@H]1C	-34	-22
COc1ccc(S(=O)(=O)N[C@H]2CC[C@@H](CC(=O)NCCc3ccccc3)O[C@H]2CO)cc1	-2	-4
C[C@@H]1CN([C@H](C)CO)C(=O)c2cc(Br)cnc2O[C@@H]1CN(C)C(=O)Nc1cccc(F)c1	26	15
O=C(Nc1cccc(F)c1)N1C[C@@H]2N[C@H](C1)C2c1ccc(-c2ccc(F)cc2)cc1 (stereo partly drawn)	?	nt
COCCNC(=O)C[C@@H]1C[C@@H]2c3cc(NC(=O)C4CCOCC4)ccc3O[C@@H]2[C@H](CO)O1	-2	0
C#CCNC(=O)C1=C[C@H](c2ccc(C(F)(F)F)cc2)C[C@H](OCCCCO)O1	-4	7
COc1ccc(S(=O)(=O)N[C@H]2C=C[C@H](CC(=O)N3CCc4ccccc4C3)O[C@@H]2CO)cc1	-21	-19
C[C@H](CO)N1C[C@H](C)[C@@H](CN(C)C(=O)c2ccc(F)cc2)Oc2cc(C3=CCCC3)ccc2S1(=O)=O	-13	-8
C[C@H]1CN([C@@H](C)CO)C(=O)c2cc(NC(=O)Nc3cccc4ccccc34)ccc2O[C@H]1CN(C)Cc1ccccc1	-17	-16
C[C@@H]1CCCCO[C@@H](CN(C)C)[C@H](C)CN([C@@H](C)CO)C(=O)c2cc(NC(=O)c3ccncc3)ccc2O1	1	-2
COc1ccc(S(=O)(=O)Nc2ccc3c(c2)C(=O)N([C@H](C)CO)C[C@@H](C)[C@@H](CN(C)Cc2ccc(C(=O)O)cc2)OCCCC[C@@H](C)O3)cc1	50	16
C[C@@H]1CN([C@H](C)CO)S(=O)(=O)c2ccc(Br)cc2O[C@@H]1CN(C)C(=O)C1CC1	1	-2
COc1ccc(S(=O)(=O)Nc2ccc3c(c2)C(=O)N([C@H](C)CO)C[C@@H](C)[C@H](CN(C)C(=O)Nc2ccccc2)O3)cc1	-6	3
Cc1ccc(S(=O)(=O)N(C)C[C@H]2OCCCC[C@@H](C)Oc3ccc(NS(=O)(=O)c4ccc(Cl)cc4)cc3C(=O)N([C@@H](C)CO)C[C@H]2C)cc1	?	nt
C[C@@H]1CN([C@H](C)CO)C(=O)c2cccc(NC(=O)Nc3ccc4c(c3)OCO4)c2O[C@@H]1CN(C)Cc1ccc(C(=O)Nc2ccccc2N)cc1	-1	1
O=C(C1CC1)N1CC2(C1)[C@H](c1ccccc1)[C@H](CO)N2C(=O)c1cccnc1	6	3
O=C(C1CCOCC1)N1CC2(C1)[C@H](c1ccccc1)[C@@H](CO)N2CCC(F)(F)F	12	14
